Vaccinia stage: blocks a specific stage of Vaccinia orthopoxvirus infection, primary screen, cell-based, single point; Vaccinia-infected cells, mCherry/Venus stage reporter fluorescence; hits give low values; some inactives read as strong as hits; activity change (mCherry), % (concentration not given with the values); 89,000 tested, 0.01% active;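 active means mCherry past -33% and 40 or more points under the early reporter, replicates agreeing; inconclusive means past -33% without that gap or agreement; tested in A549 cells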;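 further: scaled between vehicle wells and reference inhibitor wells; 23 nL library stock went into each well; one replicate is shown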
Vaccinia stage Venus: second read-out of Vaccinia stage, no call of its own (marks repeat the call); activity change (Venus), %; measured here: Venus reporter, other viral stage;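 negative = less Venus signal; first of two replicates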
The depositor's hits bear a star; ? = inconclusive; · = not tested or not shown. A portion of the library; rates above refer to the full screens.

# | canonical_smiles | Vaccinia stage | Vaccinia stage Venus
1 | CC(=O)N(C)C[C@@H]1Oc2ncc(-c3cccnc3)cc2C(=O)N([C@@H](C)CO)C[C@H]1C | 24 | 6
2 | C/C=C/c1ccc2c(c1)O[C@H](CN(C)C(=O)Cc1ccccc1)[C@H](C)CN([C@H](C)CO)S2(=O)=O | -12 | -14
3 | COC(=O)[C@H]1[C@H](CO)[C@H]2Cn3c(ccc(-c4ccccc4)c3=O)[C@H]2N1C(=O)C1CC1 | 11 | 10
4 | O=C(C[C@@H]1C=C[C@H](NC(=O)c2ccccn2)[C@H](CO)O1)NCc1cc(F)cc(F)c1 | 7 | 15
5 | Cc1cc(C(=O)Nc2cccc3c2O[C@H](CN(C)C(=O)Nc2ccc4c(c2)OCO4)[C@H](C)CN([C@H](C)CO)C3=O)n(C)n1 | 5 | -2
6 | COc1ccccc1NC(=O)N(C)C[C@@H]1OCc2cnnn2CCCC(=O)N([C@H](C)CO)C[C@H]1C | 13 | 13
7 | C[C@@H]1CN([C@@H](C)CO)C(=O)c2cc(-c3cncnc3)cnc2O[C@@H]1CN(C)Cc1ccccc1 | -2 | 1
8 | C[C@@H]1CN([C@H](C)CO)C(=O)Cc2cc(N(C)C)ccc2O[C@H]1CN(C)Cc1ccccc1 | 0 | -4
9 | CC(=O)N1[C@@H]2c3ccc(-c4ccc(F)cc4)c(=O)n3C[C@H]1[C@H](CO)[C@H]2C(=O)N(C)C | 7 | 6
10 | C[C@H](CO)N1C[C@H](C)[C@@H](CN(C)CC2CCCC2)Oc2cc(C#CCN(C)C)ccc2S1(=O)=O | 5 | 3
11 | O=C(C[C@@H]1C=C[C@H](NC(=O)CN2CCOCC2)[C@H](CO)O1)NC1CCC1 | 4 | 4
12 | CCCNC(=O)N1[C@H](CO)[C@@H](c2ccccc2)[C@H]1CNC(=O)c1cccc(F)c1 | 13 | 11
13 | C[C@@H]1CN([C@@H](C)CO)C(=O)c2cc(NC(=O)Cn3cnnn3)ccc2O[C@H]1CN(C)Cc1ccccc1 | -4 | -1
14 | C[C@@H]1CCCCO[C@@H](CN(C)S(=O)(=O)c2cccs2)[C@H](C)CN([C@@H](C)CO)C(=O)c2cc(NC(=O)c3ccncc3)ccc2O1 | -2 | 4
15 | O=S(=O)(c1ccccc1)N1C[C@H]2[C@@H](c3ccccc31)[C@@H](CO)N2Cc1ccccc1 | -11 | -9
16 | C[C@H]1CN([C@@H](C)CO)C(=O)c2cc(NS(=O)(=O)c3ccc(Cl)cc3)ccc2O[C@H]1CN(C)S(=O)(=O)c1cccs1 | -16 | 3
17 | COc1ccc2c3c(n(C)c2c1)[C@H](CO)N(C(=O)NC(C)C)CC31CCN(CC2CCCCC2)CC1 | -27 | -19
18 | CO[C@@H]1CN(C)C(=O)c2ccc(NC(=O)CC(F)(F)F)cc2OC[C@H](C)N(C(=O)C2CCOCC2)C[C@H]1C | 7 | 4
19 | C[C@@H]1CCCCO[C@H](CN(C)Cc2ccc(C(F)(F)F)cc2)[C@@H](C)CN([C@@H](C)CO)C(=O)c2cc(NC(=O)c3ccccc3)ccc2O1 | ? | ·
20 | COc1ccc(-c2ccc3n(c2=O)C[C@H]2[C@H](CO)[C@@H](C(=O)N4CCCCC4)[C@@H]3N2C)cc1 | 5 | 6
21 | Cc1ccc(S(=O)(=O)Nc2cccc3c2O[C@H](CN(C)Cc2ccc(C(F)(F)F)cc2)[C@@H](C)CN([C@H](C)CO)C3=O)cc1 | 14 | 3
22 | COc1ccc(CN(C)C[C@@H]2Oc3c(NS(=O)(=O)c4ccc(C)cc4)cccc3C(=O)N([C@@H](C)CO)C[C@H]2C)cc1 | -18 | -1
23 | COc1ccc(CN2[C@@H](CO)[C@@H]3c4ccccc4N(C(=O)Nc4ccccc4)C[C@@H]32)cc1 | -13 | -11
24 | CC(=O)N(C)C[C@H]1Oc2cc(C#Cc3ccncc3)ccc2S(=O)(=O)N([C@@H](C)CO)C[C@@H]1C | -23 | -5
25 | N#Cc1cccc(-c2ccc3c(c2)[C@H]2[C@H](CCN2S(=O)(=O)c2cccc(F)c2)[C@H](CO)N3)c1 | ? | ·
26 | COCCNC(=O)C[C@@H]1CC[C@@H](NS(=O)(=O)c2ccc(C)cc2)[C@@H](CO)O1 | 4 | -6
27 | O=C(c1ccccc1F)N1C[C@@H]2[C@H](c3ccccc31)[C@@H](CO)N2C(=O)c1cccnc1 | -3 | 1
28 | Cc1ccc(S(=O)(=O)Nc2ccc3c(c2)C(=O)N([C@H](C)CO)C[C@H](C)[C@H](CN(C)C(=O)NC2CCCCC2)O3)cc1 | -32 | -26
29 | C[C@H]1CN([C@@H](C)CO)C(=O)c2cc(NC(=O)Cc3ccccc3)ccc2O[C@@H]1CN(C)C(=O)Nc1cccc2ccccc12 | 1 | 4
30 | N#C[C@H]1[C@H](c2ccccc2-c2ccccc2F)[C@H](CO)N1C(=O)Cc1ccccc1 | -7 | -7
31 | C[C@H](CO)N1C[C@H](C)[C@H](CN(C)C(=O)C2CC2)Oc2cc(-c3ccccc3F)ccc2S1(=O)=O | 1 | -2
32 | COc1ccc2c3c(n(C)c2c1)[C@@H](CO)N(CC1CCCC1)CC31CN(C(=O)Nc2ccccc2)C1 | -25 | -20
33 | CN(C)C(=O)[C@H]1[C@H](CO)[C@H]2Cn3c(cccc3=O)[C@H]2N1C(=O)NC1CCCC1 | 9 | 9
34 | COCC(=O)N1CC(=O)N2[C@H](CO)[C@H](c3ccc(-c4cccnc4)cc3)[C@@H]2C1 | 20 | 8
35 | CCC(=O)N1C[C@@H](C)[C@@H](OC)CN(C)C(=O)c2ccc(NC(=O)CC(F)(F)F)cc2OC[C@H]1C | 2 | 0
36 | COCC(=O)Nc1ccc2c(c1)[C@H]1C[C@H](CC(=O)NCc3cccnc3)O[C@@H](CO)[C@H]1O2 | -6 | -7
37 | O=S(=O)(c1ccc2ccccc2c1)N1CCN(Cc2cccc(OCCO)c2)CC1 | ? | ·
38 | Cc1noc(C)c1NC(=O)Nc1ccc2c(c1)CC(=O)N([C@@H](C)CO)C[C@@H](C)[C@@H](CN(C)CC1CCCCC1)O2 | -3 | 6
39 | CCN(C[C@H]1N[C@H](CO)[C@@H]1c1ccc(C2=CCCC2)cc1)C(=O)c1ccncc1 | -34 | -31
40 | COc1ccccc1S(=O)(=O)N(C)C[C@@H]1OCc2cn(nn2)CCCC(=O)N([C@H](C)CO)C[C@@H]1C | 3 | 3
41 | COc1ccc(S(=O)(=O)N(C)C[C@@H]2Oc3ncc(-c4ccncc4)cc3C(=O)N([C@H](C)CO)C[C@H]2C)cc1 | 13 | 10
42 | CO[C@@H]1CN(C)C(=O)c2ccc(NC(=O)NC(C)C)cc2OC[C@@H](C)N(Cc2ccccc2)C[C@@H]1C | -14 | -10
43 | COCC(=O)N(C)C[C@H]1Oc2cc(-c3ccncc3)ccc2S(=O)(=O)N([C@@H](C)CO)C[C@@H]1C | 10 | -3
44 | C[C@@H]1CCCCO[C@@H](CN(C)S(C)(=O)=O)[C@H](C)CN([C@@H](C)CO)C(=O)c2cc(NC(=O)Nc3ccccc3)ccc2O1 | 7 | -3
45 | C[C@H]1CN([C@@H](C)CO)C(=O)c2cc(NC(=O)C3CC3)ccc2O[C@@H]1CN(C)C(=O)Nc1ccc(F)cc1 | 17 | 14
46 | C[C@@H]1CN([C@@H](C)CO)C(=O)Cc2cc(NC(=O)CCCCCC(=O)Nc3ccccc3N)ccc2O[C@@H]1CN(C)CC1CCCCC1 | ? | ·
47 | O=C(C[C@@H]1C[C@@H]2c3cc(NC(=O)C4CCC4)ccc3O[C@@H]2[C@@H](CO)O1)NCc1cccnc1 | 19 | 8
48 | CC(C)NC(=O)N[C@@H]1C=C[C@H](CC(=O)NC2Cc3ccccc3C2)O[C@H]1CO | 16 | 16
49 | C[C@H]1CN([C@@H](C)CO)C(=O)c2cc(NS(=O)(=O)c3cn(C)cn3)ccc2O[C@H]1CN(C)Cc1ccc(C(=O)O)cc1 | 1 | 0
50 | CN(C)CCCNC(=O)C[C@@H]1CC[C@H](NC(=O)Cc2cccnc2)[C@H](CO)O1 | -2 | 6
51 | CS(=O)(=O)Nc1ccc2c(c1)[C@@H]1C[C@@H](CC(=O)NCc3cc(F)ccc3F)O[C@H](CO)[C@@H]1O2 | -2 | 8
52 | Cc1ccc(S(=O)(=O)N2CC[C@@H]3[C@H]2c2cc(C#Cc4ccccc4F)ccc2N[C@@H]3CO)cc1 | -4 | 0
53 | Cc1cccc(S(=O)(=O)N2CCCCN3[C@H](CO)[C@@H](c4ccc(C#C[C@@H](C)O)cc4)[C@H]3C2)c1 | -5 | -13
54 | CS(=O)(=O)N1CCCCN2[C@H](CO)[C@@H](c3ccc(C#Cc4ccccn4)cc3)[C@@H]2C1 | 36 | 12
55 | CC(C)NC(=O)Nc1ccc2c(c1)C(=O)N([C@H](C)CO)C[C@@H](C)[C@@H](CN(C)Cc1ccc(C(=O)Nc3ccccc3N)cc1)O2 | 6 | -3
56 | C[C@H](CO)N1C[C@H](C)[C@@H](CN(C)Cc2cncnc2)Oc2ncc(-c3ccc(C#N)cc3)cc2C1=O | -8 | -9
57 | CC(C)CC#Cc1ccc2c(c1)O[C@H](CN(C)C(=O)Cc1ccccc1)[C@@H](C)CN([C@@H](C)CO)S2(=O)=O | ? | ·
58 | CCNC(=O)Nc1ccc2c(c1)C(=O)N(C)[C@H]1CC[C@@H](CC(=O)N[C@@H](C)c3ccccc3)O[C@@H]1CO2 | 5 | -6
59 | C[C@@H]1CN([C@H](C)CO)C(=O)c2cc(NC(=O)CCCN(C)C)ccc2O[C@H]1CN(C)Cc1ccc(Oc2ccccc2)cc1 | -15 | -3
60 | C/C=C/c1ccc(C2[C@@H]3CN(S(=O)(=O)c4ccccc4C)C[C@H]2N3)cc1 (stereo partly drawn) | ? | ·

Additional entries.
# | canonical_smiles | Vaccinia stage | Vaccinia stage Venus
61 | CCCNC(=O)N(C)C[C@H]1Oc2cc(C#Cc3cccc(F)c3)ccc2S(=O)(=O)N([C@H](C)CO)C[C@@H]1C | ? | ·
62 | COCC(=O)N(C)C[C@@H]1Oc2ncc(C3=CCCC3)cc2C(=O)N([C@@H](C)CO)C[C@@H]1C | 28 | 16
63 | CCC(=O)N(C)C[C@@H]1[C@@H](c2ccc(-c3ccccc3F)cc2)[C@H](CO)N1C(C)=O | -18 | -15
64 | COc1ccc(NC(=O)N(C)C[C@H]2Oc3ccc(NS(=O)(=O)c4ccc(F)cc4)cc3CC(=O)N([C@H](C)CO)C[C@@H]2C)cc1 | 10 | 4
65 | CCC(=O)N1[C@@H]2Cn3c(ccc(-c4ccccc4)c3=O)[C@H]1[C@@H](C(=O)N1CCN(C)CC1)[C@@H]2CO | 4 | 6
66 | COCC(=O)Nc1ccc2c(c1)C(=O)N(C)C[C@@H](OC)[C@H](C)CN(C(=O)Nc1ccccc1F)[C@H](C)CO2 | 4 | -1
67 | C[C@H]1CN([C@@H](C)CO)S(=O)(=O)c2ccc(C#Cc3cccnc3)cc2O[C@@H]1CN(C)CC1CCOCC1 | -25 | -16
68 | CN(C)c1ccc2c(c1)[C@@H]1C[C@H](CC(=O)NCc3ccc(Cl)cc3)O[C@H](CO)[C@@H]1O2 | -6 | -3
69 | C[C@H](CO)N1C[C@H](C)[C@@H](CN(C)C(=O)c2ccc(F)cc2)Oc2cc(C3=CCCCC3)ccc2S1(=O)=O | -28 | -30
70 | CCNC(=O)C[C@@H]1CC[C@H]2[C@@H](COc3ccc(NC(=O)c4ccc(F)c(F)c4)cc3C(=O)N2C)O1 | 7 | 12
71 | C[C@H]1CCCCO[C@H](CN(C)C(=O)Nc2cccc3ccccc23)[C@@H](C)CN([C@@H](C)CO)C(=O)c2cc(NC(=O)CCCN(C)C)ccc2O1 | 12 | 11
72 | C[C@H](CO)N1C[C@H](C)[C@H](CN(C)C(=O)C2CCCCC2)Oc2cc(C#Cc3ccncc3)ccc2S1(=O)=O | ? | ·
73 | C[C@H]1CCCCO[C@H](CN(C)Cc2ccc(Cl)c(Cl)c2)[C@@H](C)CN([C@@H](C)CO)C(=O)c2cc(NC(=O)Nc3ccc(C(F)(F)F)cc3)ccc2O1 | 16 | 2
74 | C[C@@H]1CN([C@H](C)CO)S(=O)(=O)c2ccc(-c3ccccc3F)cc2O[C@H]1CN(C)S(C)(=O)=O | -9 | -5

11 entries already listed, ordered by length of the SMILES, ascending:
# | canonical_smiles | Vaccinia stage | Vaccinia stage Venus
48 | CC(C)NC(=O)N[C@@H]1C=C[C@H](CC(=O)NC2Cc3ccccc3C2)O[C@H]1CO | 16 | 16
12 | CCCNC(=O)N1[C@H](CO)[C@@H](c2ccccc2)[C@H]1CNC(=O)c1cccc(F)c1 | 13 | 11
15 | O=S(=O)(c1ccccc1)N1C[C@H]2[C@@H](c3ccccc31)[C@@H](CO)N2Cc1ccccc1 | -11 | -9
17 | COc1ccc2c3c(n(C)c2c1)[C@H](CO)N(C(=O)NC(C)C)CC31CCN(CC2CCCCC2)CC1 | -27 | -19
23 | COc1ccc(CN2[C@@H](CO)[C@@H]3c4ccccc4N(C(=O)Nc4ccccc4)C[C@@H]32)cc1 | -13 | -11
68 | CN(C)c1ccc2c(c1)[C@@H]1C[C@H](CC(=O)NCc3ccc(Cl)cc3)O[C@H](CO)[C@@H]1O2 | -6 | -3
59 | C[C@@H]1CN([C@H](C)CO)C(=O)c2cc(NC(=O)CCCN(C)C)ccc2O[C@H]1CN(C)Cc1ccc(Oc2ccccc2)cc1 | -15 | -3
16 | C[C@H]1CN([C@@H](C)CO)C(=O)c2cc(NS(=O)(=O)c3ccc(Cl)cc3)ccc2O[C@H]1CN(C)S(=O)(=O)c1cccs1 | -16 | 3
5 | Cc1cc(C(=O)Nc2cccc3c2O[C@H](CN(C)C(=O)Nc2ccc4c(c2)OCO4)[C@H](C)CN([C@H](C)CO)C3=O)n(C)n1 | 5 | -2
44 | C[C@@H]1CCCCO[C@@H](CN(C)S(C)(=O)=O)[C@H](C)CN([C@@H](C)CO)C(=O)c2cc(NC(=O)Nc3ccccc3)ccc2O1 | 7 | -3
14 | C[C@@H]1CCCCO[C@@H](CN(C)S(=O)(=O)c2cccs2)[C@H](C)CN([C@@H](C)CO)C(=O)c2cc(NC(=O)c3ccncc3)ccc2O1 | -2 | 4

From PubChem
